Ab BasE inh – BasE siderophore biosynthesis inhibition | purified BasE, fluorescence polarization binding displacement | inhibition, % (concentration not given with the values) | 84,000 tested, 0.1% active | AID 485350;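 active means both replicates above 25% with normal brightness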;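 further: 0% = negative plate control signal and 100% = positive plate control signal; stock transfer was 100 nL into about 30 µL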
KSHV LANA nucl – inhibitors of KSHV LANA binding to nucleosomes; FITC-LANA1-23 / chicken nucleosome fluorescence polarization; active compounds read low; z-score (concentration not given with the values); 51,000 tested, 0.3% active;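 active means both repeat wells score below -2 in polarization z-score versus plate sample wells, excluding overly bright wells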;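 further: 100 nL library stock added to about 30 µL; numbers are from one replicate; some results filed as inactive read as strong as hits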
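Assay system: purified chicken nucleosomes with FITC-labelled LANA N-terminal peptide (1-23) / Probe or stimulus: 50 nM FITC-LANA1-23 probe / Compound dosing: pin-transferred compound, 100 nL / Times: compound with peptide–nucleosome mix 10–45 min at room temperature / Technique: fluorescence polarization, 480 nm excitation, 535 nm parallel and perpendicular emission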
* = called active by the depositor; x = not tested or not shown; & = joins results of further samples.

SMILES	Ab BasE inh	KSHV LANA nucl
O=C1NC(=NC2CCCC2)S/C1=C\c1cn(-c2ccccc2)nc1-c1cccs1	-2.1	x
COc1ccc(Cn2c(=O)c3ccccc3n3c(-c4ccccc4O)nnc23)cc1	0.7	-0.94
CCOC(=O)C1C(=O)C=C(c2cccs2)CC1c1ccc(C)cc1 (stereo not given)	-1.8	x
CCOC(=O)c1cnc2c(ccc3ccccc32)c1NC1CC(C)(C)NC(C)(C)C1	-4.9	x
CCCC(C)C(=O)N1CCC(Cc2ccccc2)CC1 (stereo not given)	-0.8	-0.988
CC(C)CC1NC(=O)N(Cc2cccc(Br)c2)C1=O (stereo not given)	-1.5	x
Cc1cc(NC(=O)c2cccs2)no1	0.2	0.198
COc1ccc(OC)c(-c2csc(=NC(C)C)n2/N=C2\C(=O)N(C)c3ccccc32)c1	-5.0	x
O=C(c1c[nH]c2ccccc12)C(c1ccccc1)N1CCN(c2ccc(O)cc2)CC1 (stereo not given)	1.5	x
C/[N+]([O-])=C\c1ccc(C(F)(F)F)cc1	0.3	x
CN(C)C(CNC(=O)Cc1ccc(Cl)c(Cl)c1)c1ccco1 (stereo not given)	-2.5	x
Clc1nc2ccccc2c(N2CCOCC2)c1CNc1ccc(N2CCOCC2)cc1	-2.2	1.16
CCCOc1ccc(/C=C2/SC(=O)N(CN3CCCCC3)C2=O)cc1	3.8	x
O=C(N/N=C/C=C/c1ccccc1)c1ccccc1O	2.8	1.74
COc1ccc2c(c1)c1nc3ccccc3nc1n2CC(C)C	39.9	x
COc1cc(C(=O)OC(C)C(=O)NCC2CCCCC2)cc(NC(=O)c2ccco2)c1OC (stereo not given)	1.8	x
O=C(c1cccc(NC2=NC3CS(=O)(=O)CC3S2)c1)N1CCN(Cc2ccc3c(c2)OCO3)CC1 (stereo not given)	0.0	1.07
Cc1nc(C(=O)O)nn1-c1cccc(C(F)(F)F)c1	0.2	x
Cc1csc2nc(CSc3ccc(Cl)cc3)c(Br)n12	2.2	x
O=C(OCC(=O)N1CCCC1=O)c1ncc(Cl)c(Cl)c1Cl	-0.9	x
C=CCN(CC=C)Cn1[nH]c(-c2cccs2)nc1=S	3.5	x
O=C1OCCC1Sc1nnc(Cc2cccs2)n1C1CCCCC1 (stereo not given)	1.2	x
CC(=O)NC(Nc1cccc(F)c1)(C(F)(F)F)C(F)(F)F	0.8	-0.94
COC(=O)C12C3CC4C5C(C(=NNC(N)=S)C41)C2C53 (stereo not given)	0.1	x
O=C(CCC1N=C2c3ccccc3N=C(SCc3ccc(F)cc3)N2C1=O)NCc1ccco1 (stereo not given)	-0.7	0.752
O=C1CCc2ccccc2CN1	2.5	-0.892
COc1ccc(S(=O)(=O)NC(C)C(=O)N2CCN(C)CC2)cc1Cl (stereo not given)	0.1	-1.28
COCCNC(=O)c1ccc(-c2ccccc2)s1	-5.3	0.749
COc1ccc(CNc2nc(SC)n[nH]2)cc1OC	-0.2	-1.37
COc1ccc(-c2csc(=Nc3ccccc3)n2N2CCOCC2)cc1	1.2	0.475
CCOC(=O)c1c2n(c3ccc(O)cc13)CCCCC2	0.6	-0.52
CCCCN(c1ccccc1C(=O)O)S(=O)(=O)c1ccc(OC)cc1	2.0	-0.31
CC(C)(C)NC(=O)CCSc1ccccc1	-0.4	0.791
CC(C(=O)N1CCc2ccccc21)n1nc(-c2ccccc2)ccc1=O (stereo not given)	-2.5	-0.0775
C#CC(C)OC(=O)Nc1cnccc1C(F)(F)F (stereo not given)	4.6	-0.415
C/C(=C/C(=O)N1CCN(C)CC1)C(=O)O	1.7	x
CCCCCC(C)N (stereo not given)	-1.6	1.26&0.83
Cc1n[nH]c(C)c1N1C(=O)c2cccc3c(N4CCCCC4)ccc(c23)C1=O	-10.0	0.385
CC(C)(C)NC(=O)N1CCC2(CC1)CC(=O)c1ccccc1O2	3.1	-0.0635
COc1ccc(NC(=O)c2ccco2)cc1NC(=O)C(C)C	-0.9	-0.023
CCOCCN1CCN(c2c3c(nc4cc(-c5cccc(C)c5)nn24)CCC3)CC1	-0.1	1.08
O=C(NCCC1=CCCCC1)c1cc(=O)[nH]c2ccccc12	1.6	x
COc1ccc(OC)c(/C=c2\s/c(=C(/C#N)c3nnc4n3CCCCC4)n(-c3ccccc3)c2=O)c1	13.3	x
O=C(CN1CCN(c2ncccn2)CC1)N(Cc1ccccc1)c1ccc(F)cc1	-1.3	0.868
O=C1NCCN1CCNS(=O)(=O)c1cccs1	4.0	x
Cc1ccc(NC(=O)C2C3C=CC(C3)C2C(=O)O)cc1 (stereo not given)	3.0	x
CCCCNc1ccc(C(=O)O)cc1	1.0	-0.53
COc1cccc(C(=O)N2CCCc3ccccc32)c1	-1.3	x
Cc1nnc(NC(=O)CC2CC3CCC2C3)s1 (stereo not given)	-1.4	1.1
Cc1ccc(-c2cc(C(F)F)nc(S(C)(=O)=O)n2)cc1	0.5	-0.611
O=C(Cc1ccccc1)Nc1cccc(N2C(=O)C3CC=CCC3C2=O)c1 (stereo not given)	4.2	-0.047
Cn1c(/C(C#N)=N/OC(=O)c2ccccc2)nc2ccccc21	-0.8	-1.2
O=C(NC1=NCCS1)C1Cc2ccccc2CN1C(=O)c1ccco1 (stereo not given)	1.8	x
COc1cc(C(Nc2ccc(S(=O)(=O)N3CCCC3)cc2)C(=O)NC(C)(C)C)cc(OC)c1OC (stereo not given)	-0.4	-0.376
Fc1ccccc1Nc1nc(NCc2ccccc2)c2ccccc2n1	-5.5	x
CC(C)C1CCC(C(=O)N[C@H](Cc2ccccc2)C(=O)O)CC1 (stereo not given in full)	x	1.23&-0.0525
O=C(Nc1nccs1)c1ccc(S(=O)(=O)NCC2CCCCC2)cc1	0.6	0.178
O=C(c1ccsc1)N1CC=C(c2ccccc2)CC1	x	-0.251
O=C(NC1CC(=O)N(c2ccccc2)C1)C1CC1 (stereo not given)	-0.3	-0.0645
CC(C)(C)Nc1nc(NN)nc(NC(C)(C)C)n1	2.7	-0.524
(more compounds)
SMILES	Ab BasE inh	KSHV LANA nucl
COc1cccc(NC(=O)CCS(=O)(=O)c2ccccc2)c1	-2.6	-0.484
Cn1c(O)c(N=NC(=O)c2ccccc2)c2ccccc21	-1.8	0.356
O=C(CSc1nnc(CNC(=O)c2cccs2)o1)NCC1CCCO1 (stereo not given)	0.0	-0.102
Cc1ccc(N2C(=O)c3ccc(C(=O)O)cc3C2=O)cc1	-0.5	1.49
Cc1nn(-c2ccccc2)c(C)c1CN(C)C(=O)CCCn1c(=O)oc2ccccc21	1.8	x
O=C(O)c1ccc(NC(CC(=O)c2ccc(Cl)cc2)c2ccccc2)cc1 (stereo not given)	2.7	x
N#CCCN(CC1CCCO1)S(=O)(=O)c1cccc2nsnc12 (stereo not given)	1.3	1.09
NNC(=O)COc1cccc(Oc2ccccc2)c1	0.3	0.558
COC(=O)c1ccc(COc2ccccc2C(=O)c2cnn(-c3ccccc3)c2)o1	-5.3	x
Cc1cccc(OCc2ccc(C(=O)NCCCN3CCOCC3)cc2)c1	-1.5	-1.04
Cc1cc(C)nc(NS(=O)(=O)c2ccc(NC(=O)c3cc(S(=O)(=O)N4CCOCC4)ccc3C)cc2)n1	0.5	x
COc1ccc(CN(Cc2cccs2)C(=O)Cc2c(C)noc2C)cc1OC	1.4	x
Cc1c(C(=O)NCc2ccccc2Br)oc2ccccc12	2.1	-0.047
CCc1ccc(C(=O)NCCOC)s1	1.3	-1.12
OC(CNCc1ccc(Cl)cc1Cl)C(F)(F)F (stereo not given)	x	0.409
COc1ccc(C2CC(c3cccs3)=NN2C(=O)COC(=O)Cn2cnnn2)cc1OC (stereo not given)	-3.5	x
O=C(NC(=S)NC1CC1)c1ccco1	-3.6	x
O=C(O)c1ccccc1SC(C(=O)O)c1ccccc1 (stereo not given)	2.5	x
Cn1nc(CSc2ccc(Cl)cc2)c(CO)c1Cl	x	-0.133
CN1CCCN(C(c2ccccc2)c2ccc(Cl)cc2)CC1 (stereo not given)	-4.1	-1.13

17 compounds out of the list, arranged by formula weight, descending.
SMILES	Ab BasE inh	KSHV LANA nucl
Cc1cc(C)nc(NS(=O)(=O)c2ccc(NC(=O)c3cc(S(=O)(=O)N4CCOCC4)ccc3C)cc2)n1	0.5	x
COc1ccc(C2CC(c3cccs3)=NN2C(=O)COC(=O)Cn2cnnn2)cc1OC (stereo not given)	-3.5	x
Cc1nn(-c2ccccc2)c(C)c1CN(C)C(=O)CCCn1c(=O)oc2ccccc21	1.8	x
COC(=O)c1ccc(COc2ccccc2C(=O)c2cnn(-c3ccccc3)c2)o1	-5.3	x
O=C(CSc1nnc(CNC(=O)c2cccs2)o1)NCC1CCCO1 (stereo not given)	0.0	-0.102
O=C(O)c1ccc(NC(CC(=O)c2ccc(Cl)cc2)c2ccccc2)cc1 (stereo not given)	2.7	x
Cc1cccc(OCc2ccc(C(=O)NCCCN3CCOCC3)cc2)c1	-1.5	-1.04
N#CCCN(CC1CCCO1)S(=O)(=O)c1cccc2nsnc12 (stereo not given)	1.3	1.09
Cc1c(C(=O)NCc2ccccc2Br)oc2ccccc12	2.1	-0.047
COc1cccc(NC(=O)CCS(=O)(=O)c2ccccc2)c1	-2.6	-0.484
CN1CCCN(C(c2ccccc2)c2ccc(Cl)cc2)CC1 (stereo not given)	-4.1	-1.13
Cn1nc(CSc2ccc(Cl)cc2)c(CO)c1Cl	x	-0.133
O=C(O)c1ccccc1SC(C(=O)O)c1ccccc1 (stereo not given)	2.5	x
Cc1ccc(N2C(=O)c3ccc(C(=O)O)cc3C2=O)cc1	-0.5	1.49
NNC(=O)COc1cccc(Oc2ccccc2)c1	0.3	0.558
CCc1ccc(C(=O)NCCOC)s1	1.3	-1.12
O=C(NC(=S)NC1CC1)c1ccco1	-3.6	x

Additional records follow:
SMILES	Ab BasE inh	KSHV LANA nucl
Cc1csc(=O)n1CC(=O)OCC(=O)NC1CCCCCCC1	0.7	x
CCc1nc2ccc(C(=O)O)cc2nc1CC	6.5	-1.28
C=CCn1c(Sc2ccc(S(=O)(=O)N(CC)c3ccccc3)cn2)nnc1C1CCCCC1	-0.6	x
Cc1ccc2oc(C(=O)N(C)c3ccccc3)c(C)c2c1	1.3	-0.0975
CCOC(=O)c1c(C)oc(C)c1S(=O)(=O)Nc1ccccc1	-0.3	0.808
CC(O)CNCC(=O)Nc1ccccc1Br (stereo not given)	4.0	x
CC(=O)Nc1ccc(S(=O)(=O)NC(=O)CC(C)C)cc1	-1.3	0.865
O=C(COC(=O)Cn1[nH]c(=O)c2ccccc2c1=O)Nc1ccccc1C(=O)NC1CC1	-0.8	x
CCOC(=O)c1cnc2cc(C(F)(F)F)ccc2c1N1CCN(c2ccc(OC)cc2)CC1	0.9	0.217
Cc1sc2ncnc(SC(C)C(=O)NC3(C#N)CCCCC3)c2c1C (stereo not given)	3.5	x
Cc1ccc(/C=N/O)o1	2.0	x
O=c1c(/C=N/O)coc2ccc(Cl)cc12	x	-0.786
O=C1c2ccccc2C(=O)N1/N=C/c1ccc2c(c1)OCO2	1.6	0.103
COc1ccc(N2C(=O)CC(N3CCN(c4ccc(S(C)(=O)=O)cc4)CC3)C2=O)cc1 (stereo not given)	1.1	-0.488
C=CCC(C#N)(CC=C)c1ccc(OC)c(OC)c1	-1.7	-0.884
COc1ccc(-c2csc(/C(C#N)=C(\O)CN3C(=O)c4ccccc4C3=O)n2)cc1OC	4.8	x
Cc1[nH]c2ccccc2c1C=C1C(=O)OC2(CCCC2)OC1=O	-0.8	-0.057
COC(=O)c1ccc(-c2ccc(/C=C3/C(=O)N(C)C(=O)C(C#N)=C3C)o2)cc1	-2.4	0.239
CSc1nnnn1-c1ccc(I)cc1	-1.0	1.17
O=C(c1ccc(F)cc1)c1cc2ccc(O)cc2oc1=O	-0.4	-0.653
C=CCn1ccn(-c2cccc(Cl)c2)c(=O)c1=O	-0.2	-0.97
Oc1ccccc1N1CCN(C(=S)NCCN2CCOCC2)CC1	2.7	x
COc1ccccc1-c1cc(C(F)(F)F)nc(S(=O)(=O)CCCC(=O)N2CCOCC2)n1	1.9	-1.11
O=C(O)CN(Cc1ccccc1)S(=O)(=O)/C=C/c1ccccc1	0.3	x
CSc1ccc(CN(C)CC(=O)NCc2ccccc2)cc1	-1.1	x
C=CCn1cn[nH]c1=S	0.0	x
NS(=O)(=O)c1ccc(NC(=O)COC(=O)c2cccc(Cl)c2)cc1	-2.4	x
CC1(C)Cc2ccccc2-c2nc(NCCCO)n(-c3ccccc3)c(=O)c21	-2.7	-0.627
CC(C#N)(NC(=O)COc1ccccc1Br)C1CC1 (stereo not given)	0.3	x
CCC1(CC)C(C)=[N+](C)c2ccccc21	-1.3	x
CC(=O)NC(=O)CSc1nnc(NC(=O)CSc2nc3ccccc3s2)s1	-0.4	1.13
COc1ccc(NC(=S)Nc2ccc(N3CCOCC3)c3nonc23)cc1OC	0.3	-0.998
O=C(COC(=O)c1ccc2c(c1)OCCO2)NC1CCCC1	0.6	x
CCNC(=O)C1CCCN(S(=O)(=O)N(C)c2ccc(F)cc2)C1 (stereo not given)	1.2	0.817
Cc1ccc(COc2cccc3c2CCN(C)C3=O)cc1	0.6	-1.05
C(=NC1=NN(c2ccccc2)CC1)c1ccccc1	2.1	-1.3
CCOC(=O)c1nn(-c2ccccc2)c2nc(=O)c(C#N)c(-c3ccccc3)n12	-2.8	x
CC1CCCN(Cc2cc(Cl)cc(Cl)c2O)C1 (stereo not given)	-0.4	-0.0435
Cc1cc(C(=O)C(C)OC(=O)c2ccc(S(=O)(=O)NCc3ccco3)cc2)c(C)n1-c1ccc(Cl)cc1 (stereo not given)	-0.9	x
CC1(C)CC(=O)C(CC(=O)N2CCCCCC2)=C(O)C1	0.3	x
Nc1cc(C(=O)OCC(=O)c2csc(N3CCCCC3)n2)ccc1Cl	-1.4	x

High-throughput results deposited in PubChem by ICCB-Longwood Screening Facility, Harvard Medical School.

Only part of the results is shown; count on the stated rates, not on these rows.
